# Vaccinia stage: Vaccinia orthopox stage-specific inhibition; 89,000 tested, 0.01% active; activity change (mCherry), % (no concentration beside the values); Vaccinia-infected cells, mCherry/Venus stage reporter fluorescence; hits give low values; some inactives read as strong as hits;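 active means mCherry past -33% and 40 or more points under the early reporter, replicates agreeing; inconclusive means past -33% without that gap or agreement; tested in A549 cells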;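 further: scaled between vehicle wells and reference inhibitor wells; 23 nL library stock went into each well; one replicate is shown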
# Vaccinia stage Venus: further read-out of Vaccinia stage, marked with its call; activity change (Venus), %; measured here: Venus reporter, other viral stage;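 negative = less Venus signal; first of two replicates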
# The depositor's hits bear a star; ? = inconclusive; · = no result given; & = joins results of further samples. This is a subset (hit frequency here may not be typical).
SMILES,Vaccinia stage,Vaccinia stage Venus
C[C@@H]1CN([C@H](C)CO)C(=O)c2cccc(N(C)C)c2O[C@H]1CN(C)Cc1ccncc1,3,1
C=CCN1Cc2ccccc2[C@@H]2OC(c3ccc(OCCCO)cc3)=N[C@]2(Cc2ccccc2)C1=O,?,·
C[C@@H]1CN([C@H](C)CO)C(=O)c2cc(C#CC3CCCC3)cnc2O[C@@H]1CN(C)C(=O)C1CC1,-2,6
CO[C@H]1CN(C)C(=O)c2cc(NS(=O)(=O)c3cn(C)cn3)ccc2OC[C@@H](C)N(CCC(F)(F)F)C[C@@H]1C,9,7
C[C@H](CO)N1C[C@H](C)[C@@H](CN(C)S(C)(=O)=O)Oc2ccc(NC(=O)C3CC3)cc2CC1=O,13,5
O=C(CN1CCOCC1)NCC[C@@H]1CC[C@@H](NS(=O)(=O)c2ccc(Cl)cc2)[C@H](CO)O1,7,14
O=C(c1ccc(F)cc1)N1CC(=O)N2[C@H](CO)[C@H](c3ccc(-c4ccccc4)cc3)[C@@H]2C1,-8,-2
C[C@@H](NC(=O)C[C@H]1CC[C@@H](NC(=O)c2cccnc2)[C@@H](CO)O1)c1ccccc1,5,6
CCC(=O)Nc1ccc2c(c1)C(=O)N(C)[C@H]1CC[C@@H](CC(=O)NCc3ccccc3)O[C@H]1CO2,-4,3
Cc1noc(C)c1S(=O)(=O)Nc1ccc2c(c1)C(=O)N([C@@H](C)CO)C[C@@H](C)[C@H](CN(C)Cc1ccc3c(c1)OCO3)OCCCC[C@@H](C)O2,-24,-16
CC(=O)N1CC[C@@H]2[C@@H](CO)Nc3ccc(-c4cccc(F)c4)cc3[C@@H]21,7,1
CC(C)NC(=O)Nc1ccc2c(c1)CC(=O)N([C@@H](C)CO)C[C@H](C)[C@H](CN(C)S(C)(=O)=O)O2,-3,5
C[C@H]1CCCCO[C@@H](CN(C)C(=O)c2ccncc2)[C@@H](C)CN([C@@H](C)CO)C(=O)c2cc(NC(=O)c3ccccc3)ccc2O1,10,-6
CN(C)C(=O)c1cccc(-c2ccc([C@H]3[C@@H](CO)N4CCCCN(Cc5cccnc5)C[C@H]34)cc2)c1,31,7
C[C@H]1CN([C@@H](C)CO)C(=O)c2cccc(NC(=O)C3CCCCC3)c2O[C@H]1CN(C)Cc1ccc(C(=O)Nc2ccccc2N)cc1,-14,-8
C[C@@H]1CCCCO[C@@H](CN(C)S(=O)(=O)c2cn(C)cn2)[C@H](C)CN([C@H](C)CO)C(=O)c2cc(NS(=O)(=O)c3cn(C)cn3)ccc2O1,23,11
C[C@@H]1CCCCO[C@@H](CN(C)Cc2ccc(Cl)c(Cl)c2)[C@@H](C)CN([C@@H](C)CO)C(=O)c2cc(NC(=O)Nc3ccccc3)ccc2O1,4,14
C[C@@H]1CN([C@H](C)CO)C(=O)Cc2cc(NC(=O)Nc3ccc(C(F)(F)F)cc3)ccc2O[C@@H]1CN(C)S(=O)(=O)c1ccc(Cl)cc1,-6,-2
CC(C)NC(=O)Nc1cccc2c1O[C@H](CN(C)C(=O)NC(C)C)[C@@H](C)CN([C@@H](C)CO)C2=O,7,2
CC(C)[C@@H](C)NC(=O)N(C)C[C@@H]1OCc2ccccc2-c2c(n(C)c3ccccc23)C(=O)N([C@@H](C)CO)C[C@H]1C,-7,0
C[C@@H]1CCCCO[C@H](CN(C)S(=O)(=O)c2ccc(Cl)cc2)[C@H](C)CN([C@H](C)CO)C(=O)c2cc(NS(=O)(=O)c3ccc(F)cc3)ccc2O1,?,·
C[C@@H]1CN([C@@H](C)CO)S(=O)(=O)c2ccc(Br)cc2O[C@@H]1CN(C)C(=O)CN(C)C,11,7
O=C(C[C@H]1CC[C@H]2[C@@H](COC[C@H](O)CN2C(=O)C2CC2)O1)NCc1ccccc1Cl,12,7
COc1ccc2c3c([nH]c2c1)[C@H](CO)N(C(C)=O)CC31CCN(C(=O)Nc2ccc(F)cc2)CC1,9,3
OC[C@H]1Nc2ccc(-c3cccc(F)c3)cc2[C@H]2[C@@H]1CCN2Cc1ccncc1,-9,16
CO[C@H](CN(C)S(=O)(=O)c1ccc(F)cc1)[C@@H](C)CN(C(=O)Nc1ccccc1F)[C@H](C)CO,-7,-13
C[C@H](CO)N1C[C@H](C)[C@H](CN(C)S(C)(=O)=O)Oc2cc(-c3ccccc3)ccc2S1(=O)=O,-9,-9
O=C(C[C@H]1CC[C@@H](NC(=O)C2CC2)[C@H](CO)O1)NCCCN1CCOCC1,-10,0
CCC(=O)Nc1ccc2c(c1)OC[C@@H](C)N(Cc1ccccc1)C[C@H](C)[C@H](OC)CN(C)C2=O,-2,-4
C[C@@H]1CN([C@@H](C)CO)C(=O)c2cc(NC(=O)Cc3cn(C)c4ccccc34)ccc2O[C@@H]1CN(C)Cc1ccc(-c2ccccc2)cc1,?,·
CC=Cc1ccc2n(c1=O)C[C@H]1[C@H](CO)[C@@H](C(=O)NCC3CC3)N(C(=O)CC3CC3)[C@@H]21 (mixture of isomers),7,11
CO[C@@H]1CN(C)C(=O)c2cc(NS(=O)(=O)c3ccccc3C)ccc2OC[C@H](C)N(C)C[C@H]1C,-5,1
CO[C@@H]1CN(C)C(=O)c2cc(NC(C)=O)ccc2OC[C@H](C)N(C(=O)CN(C)C)C[C@H]1C,0,0
Cc1ccccc1-c1ccc2c(c1)O[C@@H](CN(C)Cc1ccc(C(=O)O)cc1)[C@H](C)CN([C@@H](C)CO)S2(=O)=O,1,-9
CCN(C[C@@H]1N[C@@H](CO)[C@@H]1c1ccc(-c2cccc(C#N)c2)cc1)C(=O)COC,7,1
C[C@H](CO)N1C[C@H](C)[C@@H](CN(C)S(=O)(=O)c2ccccc2)Oc2ccc(NC(=O)CCCN(C)C)cc2CC1=O,5,-1
COc1ccc(S(=O)(=O)Nc2cccc3c2O[C@H](CN(C)S(=O)(=O)c2c(C)noc2C)[C@@H](C)CN([C@H](C)CO)C3=O)cc1,0,2
C[C@H](CO)N1C[C@H](C)[C@H](CN(C)C(=O)OCc2ccccc2)OCc2cnnn2CCCC1=O,5&2,6&7
O=C(C1CC1)N1[C@H](CO)[C@H]2c3ccccc3N(S(=O)(=O)c3ccccc3)C[C@H]21,10,11
C[C@H](CO)N1C[C@H](C)[C@H](CN(C)C(=O)Cc2cccnc2)Oc2ncc(/C=C/c3ccccc3)cc2C1=O,5,2
Cc1noc(C)c1S(=O)(=O)N(C)C[C@H]1OCCCC[C@H](C)Oc2ccc(NS(=O)(=O)c3ccccc3)cc2C(=O)N([C@@H](C)CO)C[C@@H]1C,?,·
CCCNC(=O)C[C@H]1CC[C@@H]2[C@H](COC[C@H](O)CN2CC2CCCCC2)O1,14,10
CN1C[C@H]2[C@@H](c3ccccc31)[C@@H](CO)N2C(=O)Nc1ccc(F)cc1,11,12
COc1ccc2c3c([nH]c2c1)[C@@H](CO)N(C(C)=O)CC31CN(C(=O)CN2CCOCC2)C1,0,-8
Cc1ccc(S(=O)(=O)Nc2ccc3c(c2)CC(=O)N([C@@H](C)CO)C[C@H](C)[C@@H](CN(C)S(=O)(=O)c2c(C)noc2C)O3)cc1,6,1
C[C@H](CO)N1C[C@H](C)[C@H](CN(C)Cc2ccc3c(c2)OCO3)Oc2c(NS(=O)(=O)c3ccc(Cl)cc3)cccc2C1=O,3,7
COc1ccc(-c2ccc([C@@H]3[C@@H](C#N)N(C(=O)c4cccc(F)c4)[C@H]3CO)cc2)cc1,-5,-1
C[C@@H](O)C#Cc1ccc([C@@H]2[C@H](CO)N3CCCCN(C(=O)c4ccncc4)C[C@@H]23)cc1,19,4
Cc1noc(C)c1NC(=O)Nc1ccc2c(c1)C(=O)N([C@H](C)CO)C[C@H](C)[C@@H](CN(C)S(=O)(=O)c1c(C)noc1C)OCCCC[C@H](C)O2,16,13
CO[C@H]1CN(C)C(=O)c2cc(NC(=O)Nc3ccccc3)ccc2OC[C@H](C)NC[C@@H]1C,-12,-10

# Some of these compounds in order of number of heavy atoms, highest first.
SMILES,Vaccinia stage,Vaccinia stage Venus
Cc1noc(C)c1NC(=O)Nc1ccc2c(c1)C(=O)N([C@H](C)CO)C[C@H](C)[C@@H](CN(C)S(=O)(=O)c1c(C)noc1C)OCCCC[C@H](C)O2,16,13
Cc1noc(C)c1S(=O)(=O)N(C)C[C@H]1OCCCC[C@H](C)Oc2ccc(NS(=O)(=O)c3ccccc3)cc2C(=O)N([C@@H](C)CO)C[C@@H]1C,?,·
COc1ccc(S(=O)(=O)Nc2cccc3c2O[C@H](CN(C)S(=O)(=O)c2c(C)noc2C)[C@@H](C)CN([C@H](C)CO)C3=O)cc1,0,2
C[C@H](CO)N1C[C@H](C)[C@H](CN(C)Cc2ccc3c(c2)OCO3)Oc2c(NS(=O)(=O)c3ccc(Cl)cc3)cccc2C1=O,3,7
C[C@H](CO)N1C[C@H](C)[C@H](CN(C)C(=O)Cc2cccnc2)Oc2ncc(/C=C/c3ccccc3)cc2C1=O,5,2
C[C@H](CO)N1C[C@H](C)[C@H](CN(C)C(=O)OCc2ccccc2)OCc2cnnn2CCCC1=O,5&2,6&7
CO[C@H]1CN(C)C(=O)c2cc(NC(=O)Nc3ccccc3)ccc2OC[C@H](C)NC[C@@H]1C,-12,-10
C[C@@H](O)C#Cc1ccc([C@@H]2[C@H](CO)N3CCCCN(C(=O)c4ccncc4)C[C@@H]23)cc1,19,4
O=C(C1CC1)N1[C@H](CO)[C@H]2c3ccccc3N(S(=O)(=O)c3ccccc3)C[C@H]21,10,11
CCCNC(=O)C[C@H]1CC[C@@H]2[C@H](COC[C@H](O)CN2CC2CCCCC2)O1,14,10
CN1C[C@H]2[C@@H](c3ccccc31)[C@@H](CO)N2C(=O)Nc1ccc(F)cc1,11,12

# (list continues)
SMILES,Vaccinia stage,Vaccinia stage Venus
O=C(C[C@@H]1CC[C@@H]2[C@H](COC[C@H](O)CN2C(=O)Nc2ccc(Cl)cc2)O1)NCC1CC1,-11,1
C[C@@H]1CN([C@H](C)CO)C(=O)Cc2cc(NC(=O)C3CCCCC3)ccc2O[C@@H]1CN(C)C,1,1
CC(=O)N(C)C[C@H]1Oc2cc(C#CCC(C)C)ccc2S(=O)(=O)N([C@H](C)CO)C[C@@H]1C,4,0
C[C@@H]1CN([C@@H](C)CO)C(=O)CCCn2cc(nn2)CO[C@@H]1CN(C)Cc1ccc(-c2ccccc2)cc1,-14,-8
COc1ccc(NC(=O)N(C)C[C@H]2Oc3c(NC(=O)CCCCCC(=O)Nc4ccccc4N)cccc3C(=O)N([C@@H](C)CO)C[C@@H]2C)cc1,15,10
C[C@@H]1CCCCO[C@H](CN(C)C(=O)C2CCCCC2)[C@@H](C)CN([C@@H](C)CO)C(=O)c2cc(NC(=O)Nc3cccc4ccccc34)ccc2O1,-1,0
C/C=C/c1ccc([C@H]2[C@@H](CO)N3C(=O)CN(Cc4ccc(C)cc4)C[C@H]23)cc1,-20,-16
CCC(=O)N1[C@@H](CO)[C@@H](c2ccc(-c3ccccc3OC)cc2)C12CN(C(C)=O)C2,-3,4
COc1ccc(NC(=O)N(C)C[C@H]2OCCCC[C@H](C)Oc3ccc(NC(=O)Cc4ccccc4)cc3C(=O)N([C@H](C)CO)C[C@@H]2C)cc1,-9,-5
O=C(C[C@@H]1CC[C@H]2[C@@H](COC[C@H](O)CN2Cc2cccc(C(F)(F)F)c2)O1)NCc1ccc(Cl)cc1,?,·
COCCNC(=O)C[C@H]1C[C@@H]2c3cc(NC(=O)c4ccc5c(c4)OCO5)ccc3O[C@@H]2[C@@H](CO)O1,-4,0
COc1cccc(CN2CCCCN3[C@H](CO)[C@@H](c4ccc(C#Cc5cccnc5)cc4)[C@H]3C2)c1,?,·
C[C@@H]1CN([C@H](C)CO)S(=O)(=O)c2ccc(C#C[C@@H](C)O)cc2O[C@H]1CN(C)Cc1ccccc1,-5,-11
C[C@@H]1CN([C@H](C)CO)C(=O)c2cc(NS(=O)(=O)c3cccs3)ccc2O[C@@H]1CN(C)C(=O)Nc1ccc(F)cc1,8,4
O=C(C[C@@H]1CC[C@@H](NC(=O)Nc2cc(F)ccc2F)[C@H](CO)O1)Nc1ccc(-c2ccccc2)cc1,0,7
CC(C)NC(=O)Nc1ccc2c(c1)C(=O)N([C@H](C)CO)C[C@H](C)[C@H](CN(C)S(=O)(=O)c1ccc(F)cc1)OCCCC[C@@H](C)O2,11,5
COCc1cn(CC[C@@H]2CC[C@H](NC(=O)Cc3cccnc3)[C@H](CO)O2)nn1,28,24
C[C@@H]1CN([C@H](C)CO)C(=O)Cc2cc(NC(=O)Cc3ccccc3)ccc2O[C@H]1CN(C)C(=O)NC1CCCCC1,4,4
CCCC[C@@H](O)C1=C(COc2ccccc2)C[C@H]2C(=O)N(Cc3ccccc3)C(=O)[C@H]2[C@H]1CO,?,·
CN(C)C(=O)C[C@@H]1CC[C@H]2[C@@H](COC[C@H](O)CN2C(=O)C2CC2)O1,7,9
Cc1ccc(S(=O)(=O)NCC[C@H]2CC[C@@H](NC(=O)NC(C)C)[C@H](CO)O2)cc1,16,17
CC(=O)N(C)C[C@H]1Oc2cc(C3=CCCC3)ccc2S(=O)(=O)N([C@@H](C)CO)C[C@H]1C,-6,-11
CCCNC(=O)Nc1ccc2c(c1)OC[C@@H](C)NC[C@H](C)[C@H](OC)CN(C)C2=O,9,9
O=C(C[C@H]1C[C@@H]2c3cc(NC(=O)NC4CCCC4)ccc3O[C@@H]2[C@H](CO)O1)NCCN1CCCCC1,17,10
COc1ccc(C#Cc2ccc3c(c2)O[C@@H](CN(C)C(=O)Nc2cccc(OC)c2)[C@H](C)CN([C@@H](C)CO)S3(=O)=O)cc1,-20,-19
N#C[C@H]1[C@@H](c2ccccc2)[C@@H](CO)N1C(=O)c1cc(Cl)cc(Cl)c1,9,8
COCC(=O)N1CC2(CN(C(=O)c3cccnc3)C2)c2c([nH]c3cc(OC)ccc23)[C@@H]1CO,30,21
COc1ccc(S(=O)(=O)Nc2ccc3c(c2)C(=O)N([C@H](C)CO)C[C@H](C)[C@@H](CN(C)S(=O)(=O)c2c(C)noc2C)OCCCC[C@H](C)O3)cc1,-30,-19
O=C(C[C@@H]1C[C@H]2c3cc(NS(=O)(=O)c4ccc(F)cc4)ccc3O[C@H]2[C@H](CO)O1)NC1CCCCC1,-18,-10

# Screening data (PubChem BioAssay)
